NPYLR7 agonist – activates Aedes aegypti NPYLR7 receptor. activation, % at 10 µM. actives 0.15% (n = 270,000). HEK293T NPYLR7/Galpha15, GCaMP6s calcium fluorescence. AID 1259423; in the data active = activation above about 40%;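 also: 0% = vehicle and 100% = reference agonist at the receptor; some compounds past the cut are filed as inactive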
NPYLR7 agonist max-min – also measured in NPYLR7 agonist; calls as there; activation, %; measured here: Max-Min RFU normalised activation; some inactives read as strong as hits;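 span of the calcium signal over five minutes; 0% = vehicle and 100% = native peptide agonist; compound fluorescence can raise it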
An asterisk follows results filed as active; & = joins results of further samples.

SMILES	NPYLR7 agonist	NPYLR7 agonist max-min
COc1c(Cl)cc(Cl)cc1/C=N\n1c(C)nnc1-n1nc(C)cc1C	8	8
COc1ccc(CNC(=O)CN2C(=O)CC(c3ccccc3)=Nc3ccccc32)cc1	4	5
COC(=O)c1ccc2oc(=O)n(C3CCN(C(=O)c4ccc5nonc5c4)CC3)c2c1	20	11
COc1cc(F)ccc1-c1cc(C(=O)O)cc(S(=O)(=O)NC(C)C)c1	-6	-11
CC(C)(C)C(=O)N1CCN(Cc2nnnn2-c2ccc(F)c(F)c2)CC1	-1	-4
COc1ccc(-c2n[nH]c(=S)n2N=Cc2cc(OC)c(OC)cc2OC)cc1	7	9
CN1CCN(c2nc(NCc3ccco3)nc(N)c2[N+](=O)[O-])CC1	3	10
CC(C)(C)c1cc(C(=O)N2CCOCC2)cc(C(C)(C)C)c1O	-2	3
CC1CN(C(=O)c2cc(Br)c[nH]2)CC(C)O1 (stereo not drawn)	-5	-8
N#CC1C(=N)Oc2cc(N)ccc2C1c1cccs1 (stereo not drawn)	0	0
Cc1ccn2c(NC3CCCCC3)c(-c3cccc(F)c3)nc2c1	-7	-2
CC1(c2cc(F)ccc2F)NC(=O)N(CC(=O)N(CCc2ccccc2)CCc2ccccc2)C1=O (stereo not drawn)	-7	-8
CC(C)c1cc(N2CCN(C)CC2)nc(SCc2ccc(C(=O)NN3CCOCC3)o2)n1	2	12
COc1cccc(-n2sc3c(c2=S)-c2cccc4c2N(C(=O)C4=O)C3(C)C)c1	1	-3
C(=N/Nc1nc(Nc2ccccc2)nc(N2CCOCC2)n1)/c1cccnc1	0	-5
CCOC(=O)c1nn(-c2ccccc2)c(=O)c2c(NC(=O)CCCCl)scc12	1	0
COCC(=O)N1CCC(C(NC(=O)c2cccs2)C(=O)N2CCCC2)CC1 (stereo not drawn)	-6	4
Cc1oc(-c2cc3c(cc2Cl)OCO3)nc1CN1CCCCC1CCn1cccn1 (stereo not drawn)	11	-1
CCC(C)N(Cc1ccc(C)cc1)C(=O)CCC1CCN(C)CC1 (stereo not drawn)	13	3
CCOC(=O)CN(CC(F)(F)F)C(=O)Cc1c[nH]c2ccccc12	-6	-7
Cc1noc(C)c1-c1cccc([N+](=O)[O-])c1	-5	-4
COCCc1noc(CN2CCCC2c2ccccn2)n1 (stereo not drawn)	3	3
CCOc1ccccc1NC(=O)Cn1cc(OC)c(=O)cc1CSc1nnnn1C	0	-4
N#CC1=C2SCCN2C(=O)C(C#N)C12CCCCC2 (stereo not drawn)	0	-1
COc1ccc(NC(=O)c2cccc(CN3CCCC(O)C3)c2)cn1 (stereo not drawn)	1	-1
CC1CCN(c2ccc(NC(=O)NC34CC5CC(CC(C5)C3)C4)cc2C(=O)NC2CC2)CC1	19	19
Cc1cc(C(=O)N2CCN(CC(OCc3c(F)cccc3F)c3ccc(Cl)cc3)CC2)no1 (stereo not drawn)	0	-9
COCC(=O)Nc1ccc(-n2nc(OC)nc2-c2ccc(F)cc2)cc1	1	13
C=CCN(CC(=O)N1CCc2sccc2C1COc1ccc(Cl)cc1)C(=O)c1cccs1 (stereo not drawn)	15	8
CCCn1nnnc1COc1c(Br)cccc1Br	-2	-2
CC1=C(C(=O)N(C)Cc2ccc3nsnc3c2)C(C)NC(=O)N1 (stereo not drawn)	5	2
N#CCSc1nnc(CN2CCCCC2)n1-c1ccccc1C(F)(F)F	1	3
CC(C(=O)O)N1C(=O)/C(=C/c2ccc([N+](=O)[O-])cc2)SC1=S (stereo not drawn)	-2	-9
CCS(=O)(=O)c1ccc2oc(-c3ccc(N)cc3Cl)nc2c1	-1	-8
O=C(CSc1nncs1)c1cccs1	6	11
CCOC(C)C(=O)Nc1cc(C(=O)N(C)C)ccn1 (stereo not drawn)	6	2
COCCn1cc(NC(=O)NCC(C)O)c2ccccc21 (stereo not drawn)	-2	-3
S=c1[nH]c2ccc(Cl)cc2[nH]1	3	0
COCCCN(Cc1ccc(C)cc1)Cc1ccc(C(C)(C)O)o1	-2	7
CCOC(=O)c1sc(NC(=O)c2ccc(C(C)=O)cc2)nc1C	-15	-24
O=[N+]([O-])c1cc2c(c(CSc3nc4cc(Cl)ccc4s3)c1)OCOC2	-3	-6
CCOCCOc1nc(-c2ccc3c(c2)OCO3)n(-c2ccc(NC(=O)CCl)cc2)n1	20	19
CCC(C(=O)N(CC(=O)N(Cc1cccn1Cc1ccccc1Cl)CC(C)C)C(C)C)c1ccccc1 (stereo not drawn)	-1	13
Cc1cccc(N=Nc2c(O)n(Cc3ccc(Cl)cc3Cl)c3ccccc23)c1	-2	-9
CCOC(=O)CCC(=O)N1CCC2(CC1)NC(=O)c1ccc(Cl)cc1N2	4	23
Cc1cccc(-n2cnc(Cl)c2C2SCC(=O)N2CCO)c1 (stereo not drawn)	-1&-2	-3&-2
COc1ccc(CN(Cc2ccco2)C(=O)C(C)C)cc1OS(=O)(=O)c1ccc(F)cc1	-5	6
COc1ccc(-c2nc(Nc3ccc(F)cc3)c3ccccc3n2)cc1	-2	10
CC(=O)Nc1cccc(NC(=O)CCCn2nc(-c3ccco3)ccc2=O)c1	5	6
COc1ccc(NC(=O)Cn2nc(C)c3ccccc3c2=O)cc1	3	3
COCCCn1c(SCc2ccc(C)cc2C)nnc1-c1cc(-c2ccccc2)nc2ccccc12	-8	-14
COC(=O)CCC(=O)N1CCN(c2nc3nccc(-c4ccc(C5CCCCC5)cc4)n3n2)CC1	6	0
Cc1cc(NCc2ccccc2)c2nncn2n1	-1	-1
CN(Cc1cn[nH]c1-c1ccccc1)C(=O)[C@H]1C[C@@H]2C=C[C@H]1C2	-3	-8
O=C1C(=O)N(CCCn2ccnc2)C(c2ccco2)C1=C(O)c1ccc(Cl)cc1 (stereo not drawn)	5	1
COC(=O)CCc1c(C)nc2c(c(-c3cccs3)nn2C2CCS(=O)(=O)C2)c1C (stereo not drawn)	7	0
O=C(c1ccc2c(c1)OCCO2)N(CCCN1CCOCC1)c1nc2c(F)cc(F)cc2s1	-4	-8
CCCCc1nn2c(N)c(C=C3C=CC(=O)C=C3)c(=O)nc2s1	-3	-4
Cc1ccc(-n2nnc3c(=O)n(CC(=O)N4CC(C)OC(C)C4)cnc32)cc1Cl (stereo not drawn)	1	-2
COC(=O)c1ccc([C@@H]2C[C@H]3CN(Cc4cccc(Cl)c4)C(=O)[C@]34CCCN24)cc1	1	4

More entries.
SMILES	NPYLR7 agonist	NPYLR7 agonist max-min
O=C(c1ccc(Cl)cc1)N1CCc2c(sc3[nH]c(=O)n(Cc4ccccc4)c(=O)c23)C1	9	2
Cn1ncc2c1CCCC2NCc1cccc(F)c1 (stereo not drawn)	-3	-2
O=C(Cc1ccsc1)N1CCc2[nH]nc(-c3ccc4c(c3)OCO4)c2C1	9	4
CCOC(=O)c1cccc(NC(=O)CSc2nccn3nc(-c4ccccc4OC)cc23)c1	-5	-13
CCc1cc(C(=O)N2CCCC(CCC(=O)NCc3cccc(OC)c3)C2)no1 (stereo not drawn)	5	4
COc1ccc(OCCNC(=O)c2ccc3nc(C)c(N(C)C(=O)CCc4ccccc4)n3c2)cc1	20	17
CN(Cc1nccn1Cc1ccccc1)C(=O)c1cccc2ccnn12	0	-4
CC(NC(=O)CCCc1nc2ccccc2s1)c1ccc(Br)cc1 (stereo not drawn)	1	14
CC(C)N1CCNC(=O)C1CC(=O)N1CCc2[nH]c3ccc(Cl)cc3c2C1 (stereo not drawn)	37	16
Cc1cc(S(=O)(=O)NCc2ccco2)cc([N+](=O)[O-])c1C	2	5
O=C1OC(c2ccc(Cl)cc2)=NC1=Cc1cccc(Br)c1	-2	-1
Cc1ccc(C)c(-n2cc(CN(C)CCc3cn[nH]c3)c(-c3ccccc3)n2)c1	-3	-6
COC(=O)[C@@H]1C[C@@H](NC(=O)c2c(C)nc3sccn23)CN1C	-9	-5
COCCCn1c(-c2cccs2)cn2c3c(=O)n(C)c(=O)n(C)c3nc12	4	6
S=C1N[C@H]2CCCC[C@@H]2N1CN1CCCC1	5	2
CCCCc1nc(N2CCCN(C(=O)c3ccccc3OC)CC2)c2c(-c3ccccc3)noc2n1	12	-1
O=C(Cc1ccccc1O)N1CCC(N2CCCC(C(=O)N3CCCC3)C2)CC1 (stereo not drawn)	-5	-5
Cc1cccc(Cc2nnc(NC(=O)N(C)Cc3cccs3)s2)c1	-1	6
O=C(NCCCN1CCOCC1)c1ccc(Nc2cccc(C(F)(F)F)c2)nc1	-6	-8
CCn1ccc(C(=O)N=c2sc3cccc(F)c3n2CCOC)n1	-6	-8
CC1(C)CC(=O)C(=C2CCCN2CC#N)C(=O)C1	1	-2
COc1ccc(C(=O)CSc2ccc(-c3ccc(-n4cccn4)cc3)nn2)cc1	5	-1
CC(C)N1C(C)CC(O)N1C(=O)CC#N (stereo not drawn)	-15	-20
COc1ccc(NC(=O)N[C@H]2C[C@@H](C(=O)N(C)CC(N)=O)N(C(=O)CSC)C2)cc1	-9	-15
CC1CCN(C(=O)COC(=O)c2n[nH]c3ccccc23)C2CCCCC12 (stereo not drawn)	-9	-10
COc1cccc(CC2CN(C(=O)c3ccc[nH]3)CCO2)c1 (stereo not drawn)	2	-2
Cc1c([N+](=O)[O-])c([N+](=O)[O-])nn1CC(=O)Nc1cc(Oc2cccnc2)cc([N+](=O)[O-])c1	25	25
COc1cccc(CN(Cc2ccc(F)cc2)Cc2nc(C(=O)NCCc3ccccn3)co2)c1	16	22
CC(=O)c1c(C)[nH]c(C(=O)Cn2c(C)nc3ccccc3c2=O)c1C	0	14
COc1c(NC(=O)Nc2ccc(Cn3cccn3)cc2)c(C)nn1C	-6	-8
Cc1ccc(CC(C)N(C)C(=O)c2nccn3ccnc23)cc1 (stereo not drawn)	3	1
COC(=O)C1CCN(c2nc(CN3CCCC3c3nccs3)nc3cc(OC)c(OC)cc23)CC1 (stereo not drawn)	7	-8
O=C(Cc1ccc(F)cc1F)NCc1cnn2ccccc12	6	0
COc1ccc(C(CC(=O)NC2CC2)c2cn(C)c3ccccc23)cc1OC (stereo not drawn)	0	8
COCCN(Cc1ccccn1)C(=O)c1cccc(-c2ccc(O)cc2)c1	-3	-1
N#Cc1ccc(Nc2cc(C3(C(=O)NCCNc4ccccc4)CC3)ccn2)cc1	-15	-15
O=C1CCN(C(=O)c2ccc(F)cc2)[C@@H]2c3ccccc3OC[C@@H]2CN1CCO	16	23
Cc1nnc2ccc(OCCNC(=O)Nc3ccc(F)cc3F)nn12	2	4
Cc1cc2c(cc1C)OC(C(=O)NCc1ccon1)C2 (stereo not drawn)	4	2
Cc1ccc(C2(c3noc(CN4CCN(C5CCS(=O)(=O)C5)CC4)n3)CCCC2)cc1 (stereo not drawn)	12	7
COc1ccc(C(=O)N2CCC2(C)C(=O)O)cc1C(F)(F)F (stereo not drawn)	0	-3
Cc1ccc(-c2nc(CN3CCCC3c3nonc3C)c(C)o2)o1 (stereo not drawn)	-2	-3
C#CCOc1ccc(C=NN=C(N)c2nonc2N)cc1OC	-1	-2
CCN(CC)C(=O)Oc1ccc2c(ccn2Cc2cc(F)cc(F)c2F)c1-c1cc(C)cc(C)c1	11	6
Cc1cc(Oc2cc(N3CCN(C(=O)Cc4cccs4)C(C)C3)ncn2)ccc1Cl (stereo not drawn)	7	10

Part of the list above, with each value named:
CCN(CC)C(=O)Oc1ccc2c(ccn2Cc2cc(F)cc(F)c2F)c1-c1cc(C)cc(C)c1
  NPYLR7 agonist: 11	NPYLR7 agonist max-min: 6

Cc1cc(Oc2cc(N3CCN(C(=O)Cc4cccs4)C(C)C3)ncn2)ccc1Cl (stereo not drawn)
  NPYLR7 agonist: 7	NPYLR7 agonist max-min: 10

Filtered by structure: the compounds so far with fluorine
SMILES	NPYLR7 agonist	NPYLR7 agonist max-min
COc1cc(F)ccc1-c1cc(C(=O)O)cc(S(=O)(=O)NC(C)C)c1	-6	-11
CC(C)(C)C(=O)N1CCN(Cc2nnnn2-c2ccc(F)c(F)c2)CC1	-1	-4
Cc1ccn2c(NC3CCCCC3)c(-c3cccc(F)c3)nc2c1	-7	-2
CC1(c2cc(F)ccc2F)NC(=O)N(CC(=O)N(CCc2ccccc2)CCc2ccccc2)C1=O (stereo not drawn)	-7	-8
CCOC(=O)CN(CC(F)(F)F)C(=O)Cc1c[nH]c2ccccc12	-6	-7
Cc1cc(C(=O)N2CCN(CC(OCc3c(F)cccc3F)c3ccc(Cl)cc3)CC2)no1 (stereo not drawn)	0	-9
COCC(=O)Nc1ccc(-n2nc(OC)nc2-c2ccc(F)cc2)cc1	1	13
N#CCSc1nnc(CN2CCCCC2)n1-c1ccccc1C(F)(F)F	1	3
COc1ccc(CN(Cc2ccco2)C(=O)C(C)C)cc1OS(=O)(=O)c1ccc(F)cc1	-5	6
COc1ccc(-c2nc(Nc3ccc(F)cc3)c3ccccc3n2)cc1	-2	10
O=C(c1ccc2c(c1)OCCO2)N(CCCN1CCOCC1)c1nc2c(F)cc(F)cc2s1	-4	-8
Cn1ncc2c1CCCC2NCc1cccc(F)c1 (stereo not drawn)	-3	-2
O=C(NCCCN1CCOCC1)c1ccc(Nc2cccc(C(F)(F)F)c2)nc1	-6	-8
CCn1ccc(C(=O)N=c2sc3cccc(F)c3n2CCOC)n1	-6	-8
COc1cccc(CN(Cc2ccc(F)cc2)Cc2nc(C(=O)NCCc3ccccn3)co2)c1	16	22
O=C(Cc1ccc(F)cc1F)NCc1cnn2ccccc12	6	0
O=C1CCN(C(=O)c2ccc(F)cc2)[C@@H]2c3ccccc3OC[C@@H]2CN1CCO	16	23
Cc1nnc2ccc(OCCNC(=O)Nc3ccc(F)cc3F)nn12	2	4
COc1ccc(C(=O)N2CCC2(C)C(=O)O)cc1C(F)(F)F (stereo not drawn)	0	-3
CCN(CC)C(=O)Oc1ccc2c(ccn2Cc2cc(F)cc(F)c2F)c1-c1cc(C)cc(C)c1	11	6

Bioassay records: PubChem, Fisher Drug Discovery Resource Center

Not all compounds are listed; count on the stated rates, not on these rows.
